NS1 inh: inhibitors of influenza NS1 protein function; S. cerevisiae slowed by influenza A NS1, growth recovery by OD600; Potency, µM (highest dose often 46.1 µM), for inactives: at the highest dose activity, positive = more growth; 270,000 compounds, 0.4% hits; AID 2326; further: actives are rising curves; nearly all actives have a fitted effect of over 50% in size
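S. cerevisiae expressing influenza A NS1, grown in glucose, washed, then diluted 1:100 into pH 6.0 -URA galactose medium with 23 nl compound. Growth recovery read as OD600; NS1-free strain serves as control.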
RE007 growth inh: less growth of the S. pombe RE007 Vpr strain; S. pombe RE007 Vpr strain, BacTiter-Glo ATP luminescence, 24 h; control for the full effect not named in the record; Potency, µM (top dose mostly 92.2 µM), without a hit: at the highest dose activity change, negative = less growth; 360,000 compounds, 0.21% hits; AID 651644; active = well fitted falling curve with a large enough effect; inconclusive = small, poorly fitted or top-dose-only effect; inactive = no such curve, though single readings can be large or run the other way;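 further: on the % scale 0 is the no-effect control and ±100 the full control effect; nearly all actives have a fitted effect of over 50% in size; the assay follows cell death caused by Vpr and the record does not say whether a fall means rescue or toxicity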
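Fission yeast strain RE007, carrying one chromosomally integrated HIV-1 vpr copy, was seeded at OD 0.01 in PMG+AL medium with 23 nL pinned compound. After 24 h at 30 °C and 99% humidity, viability was read by BacTiter-Glo luminescence.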
Marburg entry inh: blocks Marburg virus binding to or entry into cells; Marburg virus pseudotyped entry inhibition, cell reporter; control for the full effect not named in the record; about a third of the inactives were read at about 46 µM; 300,000 compounds, 1.8% hits; AID 540276; Potency, µM (titrated, usually from 37.8 µM), without a hit: top-dose activity change, negative = inhibition, hits mostly inhibitors; active = well fitted inhibition curve with a large enough effect; inconclusive = small, poorly fitted or top-dose-only effect, or effect the other way; inactive = flat fitted curve, though single readings scatter; tested in HEK293 cells; about a fifth of its hits are not listed in these tables; further: on the % scale 0 is the no-effect control and ±100 the full control effect; luciferase read-out
Lassa entry inh: Lassa virus entry inhibition | Potency, µM (series often up to 37.9 µM), inactives show top-dose activity change, negative = inhibition, usual class: inhibitors | Lassa virus pseudotype entry inhibition, cell reporter; control for the full effect not named in the record | 300,000 compounds, 1.2% hits | AID 540256; active means well fitted inhibition curve with a large enough effect; inconclusive means small, poorly fitted or top-dose-only effect, or effect the other way; inactive means flat fitted curve, though single readings scatter; tested in HEK293 cells; further: on the % scale 0 is the no-effect control and ±100 the full control effect; nearly all actives have a fitted effect of over 50% in size; luciferase read-out
Cruzain Triton: inhibitors of Trypanosoma cruzi cruzain with detergent; purified cruzain, Z-FR-AMC fluorescence, 0.01% Triton; Potency, µM, without a hit: max response, negative = inhibition, actives largely listed as inhibitors; AID 1478; 200,000 compounds, 0.43% hits; active means well fitted curve in the direction sought with a large enough effect; inconclusive means small, poorly fitted or top-dose-only effect, or another doubt; inactive means no such curve, though single readings can be large; an effect the other way counts as inactive or inconclusive;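 further: plate controls were neutral wells for no effect and buffer without enzyme for full effect; nearly all actives have a fitted effect of over 40% in size; top concentration of the series not given in the record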
Target sequence (P25779 123-467 limits assumed): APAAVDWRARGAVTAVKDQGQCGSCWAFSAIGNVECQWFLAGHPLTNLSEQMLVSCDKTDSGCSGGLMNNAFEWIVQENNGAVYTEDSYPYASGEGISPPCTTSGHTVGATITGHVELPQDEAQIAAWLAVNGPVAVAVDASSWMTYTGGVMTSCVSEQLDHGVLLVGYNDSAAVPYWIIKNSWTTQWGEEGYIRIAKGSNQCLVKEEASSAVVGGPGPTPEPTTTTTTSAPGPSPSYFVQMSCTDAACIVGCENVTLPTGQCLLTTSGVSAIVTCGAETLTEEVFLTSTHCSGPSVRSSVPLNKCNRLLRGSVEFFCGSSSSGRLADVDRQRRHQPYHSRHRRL
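Z-FR-AMC hydrolysis (2 uM substrate) by cruzain (1.5 nM) monitored kinetically at ex 360/em 450 nm after 15 min room-temperature compound exposure; 0.01% Triton X-100, pH 5.5, 5 mM DTT.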
Cruzain inh noDet: cruzain (T. cruzi) inhibition without detergent; P25779; purified cruzain, Z-FR-AMC fluorescence, no detergent; Potency, µM, for inactives: max response, negative = inhibition, actives largely listed as inhibitors; 200,000 compounds, 2.3% hits; active means well fitted curve in the direction sought with a large enough effect; inconclusive means small, poorly fitted or top-dose-only effect, or another doubt; inactive means no such curve, though single readings can be large; an effect the other way counts as inactive or inconclusive;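 further: plate controls were enzyme without inhibitor for no effect and buffer without enzyme for full effect; nearly all actives have a fitted effect of over 40% in size; top concentration of the series not given in the record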
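Detergent-free condition (0.00005% Triton X-100) in acetate buffer pH 5.5 with DTT. 1.5 nM enzyme and compound were pre-mixed 15 min, then 2 uM Z-FR-AMC substrate added; reaction progress from fluorescence change between first and third reads (60 s).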
SARS PLpro yeast: SARS-CoV PLP inhibition in yeast. S. cerevisiae expressing SARS-CoV PLpro, growth rescue; control for the full effect not named in the record. 330,000 compounds, 0.19% hits. Potency, µM (top dose mostly 32.9 µM), inactives show top-dose activity, positive = growth rescue; further: 0% is about no effect; nearly all actives have a fitted effect of over 55% in size; growth read by luminescence after 48 h
StopGo reporter: FMDV 2A StopGo reporter, luciferase signal; human cells with a luciferase reporter of 2A StopGo recoding; control for the full effect not named in the record; Potency, µM (top dose mostly 57.9 µM), for inactives: at the top dose signal change, negative = less light; 410,000 compounds, 1.2% hits; active = well fitted falling curve with a large enough effect; inconclusive = small, poorly fitted or top-dose-only effect; inactive = no such curve, though single readings can be large or run the other way; tested in HEK293T cells; further: on the % scale 0 is the no-effect control and ±100 the full control effect; nearly all actives have a fitted effect of over 45% in size; luciferase light after 4 h
* hit, by the source's call; ? = inconclusive; nt = not tested or not shown; & = joins results of further samples; [ ] = another dose, or the depositor's remark. Unless noted, the call rests on the fitted dose curve; in most records, active means well fitted rising curve with a large enough effect; inconclusive means small, poorly fitted or top-dose-only effect; inactive means no such curve, though single readings can be large or run the other way. Potency means the concentration at half of the fitted maximal effect.

SMILES	NS1 inh	RE007 growth inh	Marburg entry inh	Lassa entry inh	Cruzain Triton	Cruzain inh noDet	SARS PLpro yeast	StopGo reporter
CN1C(=O)/C(=C/c2ccc(OCc3ccc(C(=O)O)cc3)c(Cl)c2)NC1=S	13%	-23%	-6%	-2%	nt	nt	0%	-8%
CCOC(=O)N1CCC(N2C(=O)c3ccccc3C2Nc2cc(C)cc(C)c2)CC1 (stereo not given)	-4%	1%	?	?	nt	nt	-1%	-28%
CC(NC(=O)CCCC1CCCCC1)c1ccc(S(N)(=O)=O)cc1 (stereo not given)	20%	-11%	?	?	nt	nt	-2%	5%
O=C(NCc1ccccc1)NC(=O)c1ccccc1F	-7%	-13%	nt	nt	nt	nt	-9%	0%
Cc1cc(Br)ccc1NC(=O)CNC(=O)CN1C(=O)NC2(CCCCCC2)C1=O	-10%	-6%	11%	-2%	-0.3%	?	-1%	nt
CCOC(=O)N1CCN(c2c(NCc3ccccc3OC)c(=O)c2=O)CC1	0%	15%	nt	nt	0.1%	-2%	1%	-12%
COc1ccccc1CN(C)CC(=O)NC1CCCc2ccccc21 (stereo not given)	nt	-4%	?	4%[46.1 µM]	nt	nt	-1%	9%
Cc1ccc(C)c(NC(=O)COC(=O)CNC(=O)C2CCCCC2)c1	nt	2%	-1%	3%	nt	nt	4%	-19%
COc1ccc2c(c1)CCc1cnoc1-2	nt	?	3%	29%	nt	nt	nt	13%
Cc1ccc(CN2CCN(C(=O)C3CCC3)CC2)cc1	5%	-18%	13%	13%	2.1%	-6%	15%	17%
COc1ccc(Cc2nnc(SCC(=O)NC3(C#N)CCCCC3)n2N)cc1	nt	-12%	11%[46.1 µM]	?	nt	nt	-2%	-13%
COc1ccc(C(C)NC(=O)c2ccncc2)cc1OC (stereo not given)	15%	1%	5%[46.1 µM]	-2%[46.1 µM]	nt	nt	3%	5%
O=C1CC(SCc2nc3ccccc3[nH]2)C(=O)N1c1ccc(Cl)cc1 (stereo not given)	-16%	16µM*	-3%	7%	-8.7%	-3%	-33%	-16%
COc1ccc(C2=NOC(C(=O)Nc3cc(C)nn3-c3ccccc3)C2)cc1OC (stereo not given)	-4%	9%	nt	nt	0.4%	-6%	-5%	-31%
CC(=O)c1cc2c(cc1NS(=O)(=O)c1ccc(F)cc1)OCO2	0%	4%	-4%[46.1 µM]	nt	nt	nt	-2%	-2%
COc1ccc(-c2ocnc2C(=O)N2CCN(C(=O)C(c3ccccc3)c3ccccc3)CC2)cc1	12%	0%	-24%[46.1 µM]	nt	nt	nt	8%	-22%
S=c1[nH]nc(-c2ccccc2)n1/N=C/c1ccc(-c2ccccc2Cl)o1	11%	-18%	0.71µM*	0.82µM*	-3.6%	?	11%	0%
O=C(O)CCNc1ccc2c(c1)OCCO2	?	2%	?	2%	4.8%	5%	24%	15%
Cc1sc2ncn(CC(=O)OC(C)C)c(=O)c2c1C	8%	nt	4%	nt	-1.6%	-1%	4%	nt
N#Cc1ccc(CSc2nnc(Cc3cccs3)n2Cc2ccco2)cc1	-12%	-23%	-4%	17%	-4.6%	-16%	1%	-19%
COc1cc(OC)cc(C(=O)NC(=S)Nc2ccc3c4c(cccc24)CC3)c1	5%	-1%	-7%[46.1 µM]	-8%	5.0%	?	3%	1%
CC(C)(C)c1ccc(-n2ncc3c2CCCC3NC(=O)c2cnccn2)cc1 (stereo not given)	7%	-7%	?	?	nt	nt	-20%	-14%
COc1ccc2oc(/C=C/N(C)C)c(C(=O)c3ccc(Cl)cc3)c2c1	13µM*	?	21µM*	?	-19%	-26%	16%	-3%
CCCN1CCCc2ccccc21	4%	-21%	-13%	1%	-1.3%	-4%	12%	-11%
CN(C)/C=C1\C(=O)ON=C1c1ccccc1	nt	26%	1%[46.1 µM]	2%	nt	nt	-2%	-20%
CCCc1cc(=O)oc2cc(OCC(=O)OC)cc(OCC(=O)OC)c12	?	nt	-3%	nt	2.0%	?	6%	nt
CCc1ccc(NC(=O)C2CCCN(S(=O)(=O)c3c(C)[nH]c(=O)[nH]c3=O)C2)cc1 (stereo not given)	nt	9%	-1%&-3%[46.1 µM]	8%&16%[46.1 µM]	0.6%	2%	1%	-21%&16%
CCOC(=O)c1sc(C)c2c(=O)n(Cc3ccc(Cl)cc3)c(C)nc12	17%	43%	8%	4%	-2.2%	?	8%	-21%
O=C(CSc1nnnn1-c1ccc(F)cc1)Nc1ccccc1F	-5%	7%	-6%	-1%	nt	nt	1%	-8%
COc1ccc2occ(C(C)=O)c2c1	-10%	-11%	?	-17%	0.4%	13%	14%	nt
Cc1ccc(-c2nnc(-c3cccc4ccccc34)o2)cc1	nt	-2%	5%	?	nt	nt	nt	21%
COc1ccccc1-c1nnc2sc(-c3ccc(N(C)C)cc3)nn12	-47%	-15%	?	?	-2.6%	?	19%	-2%
C/C=C/c1ccc(OCCCCN2C(=O)NC(C)(C)C2=O)c(OC)c1	-29%	16%	?	18µM*	-1.8%	?	18%	-13%
Cc1ccc(NC(=O)CSc2nn(-c3ccccc3)c(=S)s2)cc1S(=O)(=O)N(C)C	8%	nt	7.3µM*	?	-4.9%	?	0%	?
O=C(COc1ccccc1F)Nc1ccc2[nH]c(=O)[nH]c2c1	nt	-7%	8%	0%[46.1 µM]	nt	nt	-1%	-17%
CCOc1ccc(S(=O)(=O)N2c3ccccc3CC2C)cc1 (stereo not given)	-52%	-19%	?	?	1.2%	-3%	-20%	-13%
COc1cccc(CNCC(=O)NC(=O)NC2CCCC2)c1	nt	-15%	-17%[46.1 µM]	-12%[46.1 µM]	nt	nt	-6%	-1%
CCc1nc2ccc(Br)cc2c(=O)n1-c1ccccc1C(F)(F)F	nt	-18%	-5%	-13%	nt	nt	nt	-20%
CCOc1ccccc1NC(=O)Cn1c(=O)n(-c2ccc(Cl)cc2)c(=O)c2oc3ccccc3c21	nt	nt	nt	2%[46.1 µM]	-0.5%	7%	nt	1%
NC(=O)c1nn(-c2ccc(Oc3ccccc3)cc2)c(=O)cc1O	1%	35%	21%[46.1 µM]	8%[46.1 µM]	nt	nt	3%	4%
COCC(C)n1c(C)cc(C(=O)COC(=O)c2nc3nc(C)cc(C)n3n2)c1C (stereo not given)	4%	-5%	?	-3%	-4.8%	1%	2%	-8%
O=C(NCCS(=O)(=O)c1ccc(Br)cc1)c1ccccc1	9%	9%	7%[46.1 µM]	12%[46.1 µM]	nt	nt	?	-16%
CC(=O)N(CCO)Cc1cc2cc(C)cc(C)c2[nH]c1=O	2%	-1%	3%	7%	-4.6%	5%	9%	13%
N#CCCn1nc(-c2ccccc2)c2ccccc2c1=O	-8%	-6%	nt	nt	nt	nt	0%	-15%
Cc1ccc(C(=O)COc2ccccc2-c2ccccc2)cc1C	-4%	-16%	21%	4%	-1.5%	1%	-15%	-19%
C#CCNC(=O)C1=C[C@H](C2CC2)C[C@H](OCCCCO)O1	-5%	4%	nt	nt	nt	nt	0%	-10%
CCc1nccn1S(=O)(=O)c1cc(OC)c(Cl)cc1OC	-6%	-1%	?	-10%	-5.6%	2%	4%	13%
Nc1nc(Cl)nc2c1ncn2[C@H]1C[C@H](O)[C@@H](CO)O1	13%	-2%	-38%&-5%&-38%	-14%	0.7%&5.8%	9%&-2%	-4%&2%	0%&15%
COc1cc(NS(=O)(=O)c2ccc(NC(=O)c3cccs3)cc2)nc(OC)n1	3%	3%	21%[46.1 µM]	nt	nt	nt	-2%	61%[activator]
COc1ccc(Cn2ccn(Cc3cccc(OC)c3)c(=O)c2=O)cc1	nt	nt	nt	-31%[46.1 µM]	-3.3%	-6%	nt	-12%
CCc1ccc(NC(=O)CCn2nc(C)c(S(=O)(=O)N3CCCCC3)c2C)cc1	3%	11%	nt	6%[46.1 µM]	-4.4%	?	2%	-19%&17%
COC(=O)NC(NC(=S)Nc1ccc([N+](=O)[O-])cc1)C(Cl)(Cl)Cl (stereo not given)	-23%	20%	?	-23%	?	?	-10%	-23%
Cc1ccc(CNC(=O)CCCCCn2c(=O)c3sccc3n(CC(=O)N3CCCCC3C)c2=O)cc1 (stereo not given)	nt	nt	-13%[46.1 µM]	-23%[46.1 µM]	-1.5%	8%	nt	-18%
COc1ccccc1C1C=C(c2ccc(F)cc2)Nc2nc(-c3ccc(Cl)cc3)nn21 (stereo not given)	nt	nt	?	-15%[46.1 µM]	-8.7%	0%	nt	?
CN1CCCN(C(=O)COc2ccc(F)cc2F)CC1	7%	0%	nt	nt	nt	nt	?	-24%
CC(Nc1ccc(F)cc1F)C(=O)NC(=O)NC1CCCCC1 (stereo not given)	nt	3%	?	-1%	nt	nt	1%	-17%
COCCNC(=O)C(OC(=O)CC1Sc2ccccc2NC1=O)c1ccncc1 (stereo not given)	-11%	-3%	7%	?	?	?	4%	nt
CCn1cc(C(=O)NCCCOC)c2cc(OC)c(OC)cc2c1=O	-2%	-9%	?	2%	0.9%	-3%	-7%	-18%
Cc1ccc(S(=O)(=O)N(CC(=O)NCCSc2ccccn2)c2cc(C)cc(C)c2)cc1	-49%	-17%	?	?	-3.8%	2%	-8%	-15%
CC1CC(C)CN(S(=O)(=O)c2ccc(C(=O)Nc3nnc(-c4cccs4)o3)cc2)C1 (stereo not given)	-48%	-2%	7.9µM*	?	-2.9%	?	0%	-22%

Going on with the list.
SMILES	NS1 inh	RE007 growth inh	Marburg entry inh	Lassa entry inh	Cruzain Triton	Cruzain inh noDet	SARS PLpro yeast	StopGo reporter
CCCN(CCC)S(=O)(=O)c1ccc2c(c1)N(CC(=O)NCc1ccc(F)cc1Cl)C(=O)CS2	nt	nt	nt	-27%[46.1 µM]	-7.2%	5%	nt	-13%
COc1ccccc1-c1cn[nH]c1-c1ccc(OCc2ccc(F)cc2)cc1O	9%	6%	nt	nt	nt	nt	-18%	-14%
Cc1onc(-c2ccncc2)c1C(=O)O	2%	13%	4%	-13%	4.8%	1%	-7%	-16%
CN1C2CCC1CC(NC(=O)CSc1ccc(Cl)cc1)C2 (stereo not given)	-2%	-8%	nt	nt	nt	nt	0%	-1%
COc1cc(/C=N/NC(=O)Nc2cccc3nsnc23)cc(OC)c1OC	0%	5%	-3%	-24%	-1.3%	?	-3%	?
CCC/C=N/O	nt	0%	nt	nt	-5.7%	-2%	0%	-25%

No enrichment for hits. About 4.8% of those tested had a hit in this group.
